CBX7 inh: inhibitors of human CBX7 binding to H3K27me3 peptide; actives 1.1% (n = 66,000); AID 1224903; O95931; AlphaScreen His6-CBX7 / biotin-H3K27me3 peptide binding; hits give low values; normalised signal (fraction of DMSO) (test concentration not listed); in the data active means normalised signal below about 0.5;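 further: 100 nL library stock added to about 20 µL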
Target sequence (O95931 whole entry, looked up): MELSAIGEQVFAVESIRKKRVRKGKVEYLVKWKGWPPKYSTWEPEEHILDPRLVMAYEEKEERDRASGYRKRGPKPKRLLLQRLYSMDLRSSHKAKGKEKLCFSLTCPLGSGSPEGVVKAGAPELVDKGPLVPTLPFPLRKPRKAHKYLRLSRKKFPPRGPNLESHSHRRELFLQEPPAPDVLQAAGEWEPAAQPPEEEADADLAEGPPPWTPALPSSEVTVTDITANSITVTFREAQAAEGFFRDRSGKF
CBX7 inh z-score: further read-out of CBX7 inh, marked with its call; z-score; measured here: z-score of CBX7 signal; some inactives read as strong as hits; reference of the scale not given here;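 same signal on another scale; lower means less binding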
* hit, by the source's call; ! = a repeat was not active. This is a subset. The share of hits here may be higher or lower than overall.

Values run as follows: CBX7 inh | CBX7 inh z-score
Cc1cccc(N(Cc2nnc3n2CCCCC3)C(=O)Nc2ccccc2)c1C
→ 1.03 | 0.0339
O=C(c1ccc2c(c1)OCO2)c1cn(Cc2ccc(Cl)cc2)c2cc3c(cc2c1=O)OCO3
→ 0.796 | -0.721
CCC(C)NC(=O)c1c[nH]c2ccc(S(=O)(=O)N(C)c3cccc(C)c3)cc2c1=O (centres undefined)
→ 0.718 | -3.88
COC(=O)c1ccccc1NC(=O)Cn1nc(-c2ccc(OC)cc2)ccc1=O
→ 0.8 | -2.64
COc1ccc(-c2csc(Nc3ccc4c(c3)OCO4)n2)cc1Br
→ 0.325*! | -11.7*!
CCOc1ccccc1Nc1nc(-c2ccccc2F)nc2ccccc12
→ 1.78 | 4.89
COc1ccc(Cn2c(=O)c3cccnc3n(CC(=O)Nc3ccc(F)cc3)c2=O)cc1
→ 0.988 | -0.22
Cc1ccc(CNC(=O)Cn2ncc3c2-c2ccccc2OC3)cc1
→ 0.999 | -0.0219
CCNC(=O)CCn1nc(-c2ccc(C)cc2)c2ccccc2c1=O
→ 1.03 | 0.835
CCC(C)NC(=O)C1CCN(S(=O)(=O)c2ccc3nc4c(c(C(=O)O)c3c2)CCCCC4)CC1 (centres undefined)
→ 1.04 | 1.27
Cc1onc(-c2ccccc2Cl)c1C(=O)Nc1nc2ccccc2s1
→ 1.01 | 0.467
COc1ccc(-c2nc(CS(=O)(=O)CC(=O)NCCN(C)C)c(C)o2)cc1
→ 1.01 | 0.249
CCOc1ccc(-c2nc(CSCC(=O)NCCC(C)C)c(C)o2)cc1
→ 0.715 | -3.93
Cc1nc2c(-c3ccc(F)cc3)c(C)nn2c(C)c1CCC(=O)Nc1cccc(Cl)c1C
→ 1.06 | 0.389
CCc1cccc(NC(=O)CCc2c(C)nc3c(-c4ccccc4)c(C)nn3c2C)c1
→ 1.12 | 2.95
O=C(O)c1ccc2[nH]c(=O)c(Cc3ccccc3Cl)nc2c1
→ 1.08 | 0.796
CCOc1ccc(C(=O)Nc2nc(-c3ccccc3)c(C(C)=O)s2)cc1
→ 1.01 | 0.506
CCC1=Nc2cc(C(=O)NCCCN3CCN(CC)CC3)ccc2Sc2ccc(C)cc21
→ 0.915 | -4.38
O=C(CN1C(=O)CCSc2ccccc21)NCCc1ccccc1
→ 1.05 | 2.17
CC(C)CNC(=O)c1nn2c(C(F)(F)F)cc(-c3ccco3)nc2c1Br
→ 1.05 | 1.45
CN1CCN(CCCNC(=O)C2CCCN(c3nnc(-n4cccc4)s3)C2)CC1 (centres undefined)
→ 0.958 | -0.918
CC1CCc2nc3ccc(S(=O)(=O)N4CCC(C(=O)N5CCCCC5)CC4)cc3c(C(=O)O)c2C1 (centres undefined)
→ 0.982 | -0.633
OC1(c2ccc(Cl)cc2)CCN(CCCNc2cccc(Cl)c2)CC1
→ 0.787 | -4.23
Cc1cccc(NC(=O)c2cnc3ccccn3c2=O)c1
→ 0.888 | -1.6
Cc1ccc(NC(=O)C(NS(=O)(=O)c2ccc3c(c2)CCC(=O)N3)c2ccccc2)nc1 (centres undefined)
→ 1 | 0.005
COc1ccc(/C=C\c2onc(C)c2S(=O)(=O)N2CCC(C(=O)Nc3cccc(C)n3)CC2)cc1
→ 1.02 | 0.0364
Oc1ccccc1-c1cn2ccccc2n1
→ 0.519 | -0.976
Cc1oc(-c2ccccc2Cl)nc1Cn1c(SCc2ccccc2F)nc2ccncc21
→ 1.01 | 0.245
O=C(Cn1nc(-c2ccccc2)ccc1=O)NCCN1CCN(c2cccc(Cl)c2)CC1
→ 0.932 | -2.04
Cc1nc(Nc2nc3ccccc3o2)nc(C)c1C(=O)Nc1ccc(F)cc1
→ 1.13 | 0.167

Random excerpt: 2 entries already listed.
Values run as follows: CBX7 inh | CBX7 inh z-score
COc1ccc(-c2csc(Nc3ccc4c(c3)OCO4)n2)cc1Br
→ 0.325*! | -11.7*!
COC(=O)c1ccccc1NC(=O)Cn1nc(-c2ccc(OC)cc2)ccc1=O
→ 0.8 | -2.64

The list goes on:
Values run as follows: CBX7 inh | CBX7 inh z-score
Brc1ccc(CSc2cccc3cccnc23)cc1
→ 0.952 | -0.471
Cc1ccc(CCN2C(=O)CCC2(C)C(=O)NC2CCCC(C)C2C)cc1 (centres undefined)
→ 0.976 | -0.192
CCOC(=O)N1CCN(c2c(NCCCN(CC)Cc3ccccc3)c(=O)c2=O)CC1
→ 1.17 | 3.08
O=C(Nc1ccccc1F)c1cc(-c2ccc(Br)s2)nc2ccccc12
→ 1.05 | 2.05
CCCCCCOc1ccc(N2C(=O)CC(N3CCN(S(=O)(=O)c4ccccc4)CC3)C2=O)cc1 (centres undefined)
→ 0.959 | -0.647
CCCCOc1ccc(C(=O)Nc2ccc3nc(SCC(=O)NCC4CCCO4)sc3c2)cc1 (centres undefined)
→ 0.988 | -0.473
COc1ccc(-c2ccc(=O)n(Cc3c(F)cccc3Cl)n2)cc1
→ 0.992 | -0.232
CCCN1Cc2cccc(C(=O)NCc3ccccc3)c2C1=O
→ 1.01 | 0.144
CN(Cc1ccccc1)C(=O)c1cc(-c2ccc(Br)cc2)on1
→ 0.822 | -0.235
Cc1ccccc1Nc1c(-c2ccc(N3CCOCC3)cc2)nc2ncccn12
→ 1.07 | 0.674
O=C(CN1C(=O)c2ccccc2C1=O)Nc1nc(-c2ccc(Br)cc2)cs1
→ 1.02 | 0.431
CCOC(=O)c1cnc2c(Cl)c(Cl)ccc2c1NCCCN1CCOCC1
→ 0.989 | -0.146
CC(C)(C)c1ccc(OCC(=O)N(Cc2ccc(Cl)cc2)C2CCS(=O)(=O)C2)cc1 (centres undefined)
→ 0.923 | -2.51
Cc1ccc2c(c1)NC(=O)C(CC(=O)NCCCN1CCCCCC1)O2 (centres undefined)
→ 1.13 | 3.02
COc1cc(OC)c(NC(=O)CC2Oc3ccccc3NC2=O)cc1Cl (centres undefined)
→ 1.05 | 0.99
Cc1csc2ncc(C(=O)NCCc3ccc(S(N)(=O)=O)cc3)c(=O)n12
→ 0.883 | -1.39
Cc1ccc(N2CC(c3nc4ccccc4n3CC(C)C)CC2=O)cc1Cl (centres undefined)
→ 1.04 | 0.248
COc1ccc(OC)c(-c2nnc(SCC(=O)Nc3nccs3)o2)c1
→ 0.964 | -0.744
CC1(C)CC(=O)N(CC(=O)NCCc2ccc(Cl)cc2)c2ccccc2S1
→ 0.928 | -1.47
COc1cccc(-c2nc(-c3ccccc3)c(-c3cc([N+](=O)[O-])ccc3C)[nH]2)c1OC
→ 0.369* | -0.628*
Cc1ccc(Cc2c(C)nc3nc(SCC(=O)NCCc4ccccc4)nn3c2C)cc1
→ 0.92 | -0.772
O=C(Nc1cnn(Cc2ccc(Cl)cc2Cl)c1)c1cc(C2CC2)on1
→ 0.938 | -2.01
Cc1nc(N2CCCC2)c2c(C)c(C)sc2n1
→ 1.18 | 1.89
O=C(NCCc1ccncc1)Nc1ccc(Cl)cc1
→ 1.15 | 2.29
COc1cccc(-c2nc(CS(=O)(=O)CC(=O)NCCc3ccc(Cl)cc3)c(C)o2)c1
→ 0.995 | -0.14
CC(C)CCNC(=O)c1cn(C2CCCC2)c(=O)c2c1c1ccccc1n2C
→ 0.956 | -1.09
Cc1ccc(S(=O)(=O)NCC(=O)O)c2nsnc12
→ 1.01 | 0.122
FC(F)(F)c1cccc(-c2ncnn2-c2ccc(Br)nc2)c1
→ 0.818 | -2.16
CCOc1cccc(-c2nnc(NC(=O)c3cccs3)s2)c1
→ 1.02 | 0.828
CC(=O)N1CCc2cc(S(=O)(=O)NC(CC(C)C)C(=O)N3CCN(c4ccccc4)CC3)ccc21 (centres undefined)
→ 0.886 | -2.11

New compounds follow:
compound	CBX7 inh	CBX7 inh z-score
CCCn1nnnc1NCc1ccc(OCc2ccccc2)cc1	1.02	0.665
CCCCN(CC)CCNC(=O)c1cn(C)c(=O)c2cc(OC)c(OC)cc12	1.03	0.894
CCOc1ccc(Nc2oc(-c3ccc(OC)cc3)nc2C#N)cc1	1.07	1.01
Cc1cccc(CN2C(=O)c3ccccc3S(=O)(=O)c3ccc(C(=O)NC4CCCC4)cc32)c1	1.08	2.08
Cc1oc(-c2ccc(Cl)cc2)nc1CN1CCCC(C(=O)NCc2cccnc2)C1 (centres undefined)	0.987	-0.581
COc1ccccc1N1CCN(C(c2cccs2)C(C)NC(=O)c2ccc(F)cc2)CC1 (centres undefined)	0.966	-0.835
CCOc1ccc(NC(=O)NCCN2CCN(c3ccccc3F)CC2)cc1	0.996	-0.0876
Cc1ccc(CCN2CC(C(=O)NC3CCCCC3)CC2=O)cc1 (centres undefined)	1.04	0.768
CCn1c(=O)c(C(=O)NCCN2CCCCC2)c(O)c2ccccc21	0.909	-0.995
Cc1nc2sc(C(c3cccs3)N3CCN(c4ccccc4)CC3)c(O)n2n1 (centres undefined)	1.03	1.22
CCCN(CCC)S(=O)(=O)c1ccc2c(c1)N(CC(=O)NCC1CCCO1)C(=O)CS2 (centres undefined)	1.09	2.72
Nc1cc(C(F)(F)F)ccc1Oc1ccccc1-c1ccccc1	1.16	4.01

Additional compounds follow:
compound	CBX7 inh	CBX7 inh z-score
O=C(CSc1ncnc2sc3c(c12)CCCC3)c1ccccc1F	1.05	0.0561
COc1ccc(CC(=O)Nc2c3c(nn2-c2ccc(F)cc2)CSC3)cc1OC	0.917	-2.29
COC(=O)C(C)NC(=O)CC12CC3CC(CC(C3)C1)C2 (centres undefined)	1.01	0.128
COc1ccc(C2(CNCC(O)COc3ccccc3)CCCC2)cc1OC (centres undefined)	1.03	0.956
CCOC(CNC(=O)Cn1ncc2ccsc2c1=O)OCC	0.878	-1.57
CCOC(=O)c1cnc2ccc(C)cc2c1Nc1ccc(OCC)cc1	0.932	-1.88
CC(C)CCNC(=O)c1ccc2c(c1)N(C)C(=O)c1ccccc1S2	0.987	-0.563
Cc1ccc(-c2cc(C(F)(F)F)n3nc(C(=O)NCc4ccccc4)c(Cl)c3n2)cc1	1.12	1.6
CN1CCN(C(=O)c2nn(C)c(=O)c3ccccc23)CC1	1	0.013
Cc1ccc(C)c(-n2c(Cc3cc(=O)[nH]c(=O)[nH]3)nnc2SCC(=O)Nc2cccc(C)c2C)c1	1.08	0.163
O=C(CC1Nc2ccccc2NC1=O)NCCc1ccccc1 (centres undefined)	1.02	0.319
Cc1ccccc1-n1cc(-c2ccccc2)nc1SCC(=O)Nc1ccc(Cl)cc1	0.743	-8.43

(list continues)
compound	CBX7 inh	CBX7 inh z-score
COC(=O)c1ccc(C(=O)Nc2ccc(S(=O)(=O)Nc3cc(OC)ncn3)cc2)cc1	0.969	-0.348
COc1ccc(OC)c(NC(=O)CN(C)S(=O)(=O)c2cnc[nH]2)c1	1.16	1.49
COc1ccc(Cl)cc1NC(=O)C1CCCN(S(=O)(=O)c2cccc3cccnc23)C1 (centres undefined)	0.976	-1.16
COc1ccc2c(c1)CCc1c(C(=O)Nc3ccc(OC)c(OC)c3)noc1-2	1.13	2.74
O=C(CN1CCN(Cc2cccc(Cl)c2)C1=O)N1CCc2ccccc2C1	1.01	0.147
O=C(NCCc1ccc(Cl)cc1)c1ccc(CNS(=O)(=O)c2ccccc2)cc1	0.994	-0.0732
O=C(Cn1cc(S(=O)(=O)c2ccccc2)c(=O)c2cc(F)ccc21)Nc1ccc(F)c(Cl)c1	0.957	-1.41
Cc1ccc2cc(CCNC(=O)C3CCCCC3)c(=O)[nH]c2c1C	1.13	2.47
Cn1nc(-c2ccccc2F)c2cc(C(=O)Nc3cccnc3Cl)sc21	1.01	0.0902
CCCn1cnc2cc(NCc3ccccn3)ccc21	0.349*	-18.7*
O=C(NCc1cccnc1)c1cc2c(s1)-c1ccccc1OC2	1.09	4.33
CCOc1ccc(CCNC(=O)Cc2ccc(OCC)c(OCC)c2)cc1OCC	0.862	-0.137

Complete entries as entered above. Order of values: CBX7 inh	CBX7 inh z-score
O=C(NCCc1ccc(Cl)cc1)c1ccc(CNS(=O)(=O)c2ccccc2)cc1 across the screens: 0.994	-0.0732
Cc1ccc2cc(CCNC(=O)C3CCCCC3)c(=O)[nH]c2c1C across the screens: 1.13	2.47
CCCn1cnc2cc(NCc3ccccn3)ccc21 across the screens: 0.349*	-18.7*
CCOc1ccc(CCNC(=O)Cc2ccc(OCC)c(OCC)c2)cc1OCC across the screens: 0.862	-0.137

(listing goes on)
compound	CBX7 inh	CBX7 inh z-score
CCCNC(=O)c1cc2n(n1)C(C(F)(F)F)CC(c1ccc(Cl)c(Cl)c1)N2 (centres undefined)	0.976	-0.46
COc1ccc(Nc2ncc(C(=O)Nc3ccc(C(C)C)cc3)c3ccccc23)cc1	0.848	-3
C=CCn1c(SCC(=O)c2ccccc2)nnc1-c1ccc(OC)cc1	1.01	0.383
Cc1nc2c(C(=O)N3CCCCC3)cnn2c(C)c1Cc1ccc(Cl)cc1	0.951	-1.36
CCOC(=O)c1cc2cc(OC)ccc2n1CCN(Cc1ccccc1)Cc1ccccc1	1.05	0.179
CCc1ccc(NS(=O)(=O)c2ccc3[nH]cc(C(=O)N4CCN(CC)CC4)c(=O)c3c2)cc1	0.97	-0.563
COc1ccc(C2=NOC(C(=O)Nc3ccc(F)cc3F)C2)cc1 (centres undefined)	1.04	1.35
O=C(Cn1c(-c2cncs2)nc2ccccc21)NC1CCCC1	1.05	0.0493
Cc1cc(=O)c2c(ccc3c2cc(-c2ccccc2)n3C)[nH]1	0.943	-0.202
Cc1ccc(Cl)cc1N1CC(C(=O)O)CC1=O (centres undefined)	1.04	1.26
CCOc1ccc(CCNS(=O)(=O)c2ccc3c(c2)CCN3C(=O)CC)cc1OCC	1.11	1.19
COc1cc(NC(=O)c2nn3c(C(F)(F)F)cc(-c4ccco4)nc3c2Cl)cc(OC)c1OC	1.07	0.909

(list continues)
compound	CBX7 inh	CBX7 inh z-score
Cc1ccccc1CN1C(=O)c2ccccc2S(=O)c2ccc(C(=O)NC3CCCCCC3)cc21 (centres undefined)	0.973	-0.514
COc1ccc(-c2nn(C)c3sc(C(=O)Nc4ccc(C(C)C)cc4)cc23)cc1OC	0.923	-0.995
c1ccc2[nH]c(CSc3ncn[nH]3)nc2c1	1	0.0787
O=C(O)c1c[nH]c2ccc(S(=O)(=O)Nc3ccc4c(c3)OCCO4)cc2c1=O	0.719	-5.54
O=C(C1CCC1)N1CCc2cc(S(=O)(=O)NCCN3CCC(Cc4ccccc4)CC3)ccc21	0.901	-2.75
